FPR = small-molecule ligands of human FPR – U937-FPR cells, fMLFK-FITC, flow cytometry, primary screen (AID 362) | U937-FPR cells, fMLFK-FITC displacement, flow cytometry; hits give high values; test concentration not given here; most inactive calls were filed without a number and no value below 0 was filed | inhibition, % | hit rate 1% among 4,300;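 active = inhibition of labelled peptide binding to the formyl peptide receptor of at least 65%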;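 note: plate controls were buffer control wells for no effect and unlabeled fMLFF blocking peptide for full effect; higher means less cell fluorescence so more probe displaced; part of the set was picked by virtual screening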
* hit, by the source's call; i = inactive. Only part of the results is shown; count on the stated rates, not on these rows.

SMILES | FPR
CCOC(=O)C1C(=O)C=C(c2ccc(F)cc2)CC1c1cccc(OC)c1 (centres undefined) | 7
CCOc1cccc2c1OC1(CCC(C)CC1)N1N=C(c3cccnc3)CC21 (centres undefined) | 12
COc1cccc(NC(=O)N(Cc2c[nH]c3ccccc23)C2CCCC2)c1 | i
COc1cc2c(C(=O)NCc3ccc4c(c3)OCO4)cn(CC(C)C)c(=O)c2cc1OC | i
CCCCn1c(SCC(=O)Nc2ccccc2C(=O)OC)nc2ccsc2c1=O | i
CC1CCN(S(=O)(=O)c2cn(CC(=O)NC3CCCCC3)c(=O)c3ccccc23)CC1 | 19
COc1ccc(C2C(C#N)=C(N)N(c3ncn[nH]3)C3=C2C(=O)CC(C)(C)C3)cc1 (centres undefined) | i
CC(=O)N(c1c(C)n(C)n(-c2ccccc2)c1=O)C1(C(=O)NC2CCCCC2)CCCCC1 | 3
COc1ccc(N2CCN(CCCNC(=O)c3cn(CC(C)C)c(=O)c4cc(OC)c(OC)cc34)CC2)cc1 | i
O=C(c1cnccn1)N(c1ccccc1)C1(C(=O)NC2CCCC2)CCCCC1 | i
CCCCCCSC1=C(C#N)C2(CCC(C)CC2)C(C#N)C(=O)N1 (centres undefined) | i
CCCS(=O)(=O)c1c(S(=O)(=O)CCC)c2cc(CC)ccn2c1C(=O)c1ccc(Cl)cc1 | i
O=C1C2C3C=CC(C3)C2C(=O)N1c1ccc(NC2CCN(Cc3ccccc3)CC2)c([N+](=O)[O-])c1 (centres undefined) | i
C/C=C/COC(=O)C1=C(C)NC(=O)NC1c1ccc(OCc2ccccc2)c(OC)c1 (centres undefined) | i
CC1=C(C#N)c2nc(N)c(C#N)c(C)c2/C1=C/c1ccc(-c2ccc(Cl)c(C(=O)O)c2)o1 | i

2 successive compounds out of the list so far:
SMILES | FPR
CC1CCN(S(=O)(=O)c2cn(CC(=O)NC3CCCCC3)c(=O)c3ccccc23)CC1 | 19
COc1ccc(C2C(C#N)=C(N)N(c3ncn[nH]3)C3=C2C(=O)CC(C)(C)C3)cc1 (centres undefined) | i

Quoted at random: 2 compounds from above.
SMILES | FPR
CC1=C(C#N)c2nc(N)c(C#N)c(C)c2/C1=C/c1ccc(-c2ccc(Cl)c(C(=O)O)c2)o1 | i
CC1CCN(S(=O)(=O)c2cn(CC(=O)NC3CCCCC3)c(=O)c3ccccc23)CC1 | 19

Molecules from the list above that contain two or more sulfur atoms, in the order listed:
SMILES | FPR
CCCCn1c(SCC(=O)Nc2ccccc2C(=O)OC)nc2ccsc2c1=O | i
CCCS(=O)(=O)c1c(S(=O)(=O)CCC)c2cc(CC)ccn2c1C(=O)c1ccc(Cl)cc1 | i

Remaining list, next part
SMILES | FPR
CN1CCN(C(=O)C23CC4CC(C2)CC(n2nc([N+](=O)[O-])nc2Br)(C4)C3)CC1 | i
COc1cc(C2NC(=O)N(C)C(C)=C2C(=O)OC2CCCCCC2)cc(Cl)c1O (centres undefined) | 16
CC1(C)CC(=O)/C(=C(\O)c2ccccc2)C(=NCCO)C1 | i
CC(=O)N1CCc2cc(S(=O)(=O)NC(C(=O)NCCCN(C)Cc3ccccc3)C(C)C)ccc21 (centres undefined) | i
CCC(C)NC(=O)C1CCC(CNS(=O)(=O)c2c(C)cc(C)cc2C)CC1 (centres undefined) | i
CC1=CC(C)C2(CO)COC(c3ccccc3O)C1C2C (centres undefined) | i
O=C(C1CCC(CNS(=O)(=O)c2ccc(Br)s2)CC1)N1CCN(Cc2ccccc2)CC1 (centres undefined) | 14

Given in CSV form: two of the compounds above
canonical_smiles,FPR
O=C(C1CCC(CNS(=O)(=O)c2ccc(Br)s2)CC1)N1CCN(Cc2ccccc2)CC1 (centres undefined),14
CCC(C)NC(=O)C1CCC(CNS(=O)(=O)c2c(C)cc(C)cc2C)CC1 (centres undefined),i

Compound activity (PubChem BioAssay)
